Compound activity deposited in PubChem BioAssay by National Center for Advancing Translational Sciences (NCATS).
TRPML1 agonist – qHTS for Agonists of the Human Mucolipin Transient Receptor Potential 1 (TRPML1); AID 624414, 2012; hit rate 0.12% among 410,000; Mucolipin-1 (Homo sapiens), Q9GZU1; activation, % (test concentration not listed); TRPML1-expressing cells, Ca2+ dye fluorescence, FDSS; host cell line not named in the record; reference of the full effect not given here; in the data active = activation above about 50%; inconclusive = about 30% to 50%; inactive = below about 30%; further: 0% is about no effect; the text of the record puts the active cut at 80%
Target sequence (Q9GZU1 whole entry, looked up): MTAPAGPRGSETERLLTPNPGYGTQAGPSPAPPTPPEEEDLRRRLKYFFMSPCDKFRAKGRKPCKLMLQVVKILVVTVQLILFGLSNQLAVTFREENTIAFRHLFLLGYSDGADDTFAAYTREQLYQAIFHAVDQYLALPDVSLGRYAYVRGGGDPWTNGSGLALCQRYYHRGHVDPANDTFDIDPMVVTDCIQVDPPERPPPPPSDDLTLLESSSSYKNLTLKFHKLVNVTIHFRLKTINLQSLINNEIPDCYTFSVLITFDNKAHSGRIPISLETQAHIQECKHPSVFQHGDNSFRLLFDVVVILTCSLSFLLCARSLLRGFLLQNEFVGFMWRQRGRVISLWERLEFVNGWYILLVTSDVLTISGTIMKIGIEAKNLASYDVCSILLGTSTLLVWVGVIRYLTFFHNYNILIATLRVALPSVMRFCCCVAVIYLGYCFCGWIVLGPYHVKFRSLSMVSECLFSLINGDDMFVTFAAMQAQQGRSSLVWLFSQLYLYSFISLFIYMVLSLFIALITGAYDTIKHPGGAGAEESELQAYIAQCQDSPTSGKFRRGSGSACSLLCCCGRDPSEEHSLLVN
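Calcium fluorescence on an FDSS kinetic reader gave the read-out. Tet-induced TRPML1-DL cells were plated overnight, dye-loaded (Ca8 with quencher, 45-90 min, room temperature, dark), then read 110 s after compound addition, and again 110 s after 4uM final 54-4 (EC80).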
Sfp PPTase inh – qHTS Assay for Inhibitors of Bacillus subtilis Sfp phosphopantetheinyl transferase (PPTase); 4'-phosphopantetheinyl transferase ffp (Bacillus subtilis), Q9F4F7; Biochemical Sfp PPTase activity, qHTS; Potency, µM, inactives show max response, negative = inhibition, usual class: inhibitors; hit rate 3.5% among 310,000; active means well fitted inhibition curve with a large enough effect; inconclusive means small, poorly fitted or top-dose-only effect, or another doubt; inactive means no such curve, though single readings can be large or run the other way;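 further: the enzyme is Sfp with the accession as filed and its product quenches rhodamine fluorescence; potency means the concentration at half of the fitted maximal effect; 0% = enzyme reaction without inhibitor and -100% = no enzyme wells; top concentration of the series not given in the record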
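After 15 min at room temperature with compound, 15 nM Sfp received 5 uM rhodamine-CoA plus 12.5 uM BHQ-2-ybbR (50 mM Hepes pH 7.6, 10 mM MgCl2). Rate came from the fluorescence difference over 30 min, ex 525/em 598 nm.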
TRPV1 PAM – HTS Assay for Compounds that Act as Potentiators of the Vanilloid Receptor 1 | Transient receptor potential cation channel subfamily V member 1 (Homo sapiens), Q8NER1 | TRPV1-expressing cells, Fluo-8 calcium influx, capsaicin EC20 potentiation; host cell line not named in the record; control for the full effect not named in the record | potentiation, % at 8.33 µM | hit rate 0.02% among 320,000; active means potentiation above 80%; inconclusive means 30% to 80%; inactive means below 30%; further: 0% is about no effect
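TRPV1-expressing cells were cultured overnight at 35.5C and loaded with Fluo-8 calcium dye for 40 to 90 min at room temperature. After a 10 s baseline, compound was added and calcium influx was read kinetically for 3 min (ex 480/em 520 nm).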
Menin MLL FP FL – qHTS Assay for Inhibitors Targeting the Menin-MLL Interaction in MLL Related Leukemias: Competition With Fluorescein Labeled MLL-derived Peptide. Fluorescence polarization, fluorescein-MLL peptide displacement from menin. FP activity change, % at 61.4 µM. 290,000 tested, under 10 active; inconclusive = falling polarisation curve, or a change in total fluorescence; inactive = total fluorescence flat and polarisation flat or rising; no compound was filed as active; the % refers to the polarisation; negative = inhibition;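 further: % of control where 0% means no effect; inhibitors lower the polarisation; unlabelled MLL peptide was the positive control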
ClpP mod – qHTS Assay for Activators of ClpP | ATP-dependent Clp protease proteolytic subunit (Bacillus subtilis (strain 168)), P80244 | purified B. subtilis ClpP, FRET peptide cleavage, 20 min | Potency, µM (series often up to 57.5 µM), without a hit: at the top dose activity change, negative = active | hit rate 1.9% among 340,000; active = well fitted falling curve with a large enough effect; inconclusive = small, poorly fitted or top-dose-only effect; inactive = no such curve, though single readings can be large or run the other way; further: potency means the concentration at half of the fitted maximal effect; the source files actives as falling curves though it sought activators and does not explain the sign; nearly all actives have a fitted effect of over 65% in size; many hits overshoot -100%
Target sequence (P80244 whole entry, looked up): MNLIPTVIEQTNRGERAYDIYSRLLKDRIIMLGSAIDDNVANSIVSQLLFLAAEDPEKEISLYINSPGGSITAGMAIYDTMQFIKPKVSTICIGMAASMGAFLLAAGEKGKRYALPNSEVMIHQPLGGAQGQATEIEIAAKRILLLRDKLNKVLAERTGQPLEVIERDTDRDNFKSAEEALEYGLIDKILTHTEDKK
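FRET quenching reversal measured ClpP activation: 10 microg/mL B. subtilis ClpP at pH 8 with the FRET-FV decapeptide, read at 430 nm after 320 nm excitation. The 20-min minus 0-min signal was scaled between DMSO/no-enzyme wells and ADEP (5.8 microM final).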
PINK1 modulator – A Quantitative High throughput Screen to Identify Chemical Modulators of PINK1 Expression; PINK1 immunofluorescence, high-content cytometry, 24 h; hit rate 0.2% among 410,000; Potency, µM (highest dose often 76.6 µM), for the others: top-dose activation (PINK1 increase), hits mostly activators; active = well fitted activation curve with a large enough effect; inconclusive = small, poorly fitted or top-dose-only effect; inactive = flat fitted curve, though single readings scatter; cell line not stated here;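 further: potency means the concentration at half of the fitted maximal effect; % of control where 0% means no effect; nearly all actives have a fitted effect of over 65% in size; a mitochondrial uncoupler was the plate control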
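Stable cell line treated 24 h with compounds at 5 concentrations (CCCP controls), then fixed and immunostained for PINK1 plus nuclear and cell stains; PINK1 immunofluorescence quantified by laser-scanning microplate cytometry.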
TRPML1 blocker – qHTS for Inhibitors of the Human Mucolipin Transient Receptor Potential 1 (TRPML1). TRPML1-inducible cells, Ca2+ dye fluorescence, FDSS; active compounds read low; inhibition of EC80 agonist-evoked calcium signal. AID 624415, 2012. Mucolipin-1 (Homo sapiens), Q9GZU1. hit rate 0.02% among 390,000. activity change, negative = inhibition, % (no concentration beside the values); in the data active means activity change below about -50%; inconclusive means about -30% to -50%; inactive means above about -30%;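 further: stimulus is agonist 54-4 at its EC80 concentration; on the % scale 0 is the no-effect control and ±100 the full control effect; compound concentration not given in the record; the text of the record puts the active cut at -80%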
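TRPML1-DL cells, Tet-induced overnight (~16 h, 37 °C) at 1,500 cells/well, were loaded with Ca8 no-wash dye plus quencher for 45-90 min at room temperature. Compounds were pinned during FDSS kinetic reading; agonist 54-4 at EC80 (4 uM final) then added.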
The depositor's hits bear a star; ? = inconclusive; . = no result given; & = joins results of further samples; [ ] = remark or other dose. Compounds were not picked by outcome; about 4.4% have a hit in one of these screens.

structure,TRPML1 agonist,Sfp PPTase inh,TRPV1 PAM,Menin MLL FP FL,ClpP mod,PINK1 modulator,TRPML1 blocker
O=C(Cn1[nH]c(=O)c2ccccc2c1=O)N1CCN(S(=O)(=O)c2ccc(Cl)cc2)CC1,-0.4,.,7,.,-4.0%,1.1%,-1
CC(=O)c1c(C)[nH]c(C(=O)CSc2ccc(F)cc2)c1C,-0.8,12%,-23,3.1,.,4.7%,-7
COc1ccc(S(=O)(=O)N2CCC(C(=O)N3CCCC3)CC2)cc1Cl,2.7,5%,27,3.0,0.2%,1.7%,-12
COc1ccc(N2CC(C(=O)Nc3nc(-c4ccccc4)c(C(C)=O)s3)CC2=O)c(OC)c1 (stereo not drawn),1.2,.,-1,.,-7.4%,-0.7%,7
Cc1nn(C(C)C(=O)NCc2cccs2)c(=O)c2nn(-c3ccccc3)c(C)c12 (stereo not drawn),0.9,15%,?,.,-2.5%,-1.0%,-11
CCCCNC1=CC(=O)C(=O)c2ccccc21,1.2,12%,-6,1.1,-3.5%,0.1%,8
COCCCn1cnc2oc3nc4ccccc4nc3c2c1=O,-0.3,-6%,7,5.0,0.1%,-0.3%,6
CON/C=C(\C=Nc1ccccc1)c1ncc(C(F)(F)F)cc1Cl,1.2,0%,-6,5.7,-1.9%,7.8%,2
CCCCNC(=O)c1ccccc1C(=O)NCCCC,1.2,21%,2,1.8,-0.3%,-1.6%,-2
COc1ccc(OC)c(CCNC(=O)CN2C(=O)CC(C)(C)S(=O)(=O)c3ccccc32)c1,0.8,15%,12,1.4,1.6%,-0.2%,4
C[C@H]1CN=C(N(C)C)N1CC1CCCC1,0.2,.,-6,.,-0.6%,2.5%,0
CCOC(=O)N1CCC(NCc2c(C(=O)N(C)Cc3ccccc3)nc3ccccn23)CC1,-1.1,5%,11,-1.9,.,3.1%,8

3 compounds out of the list, ordered by length of the SMILES, low to high.
structure,TRPML1 agonist,Sfp PPTase inh,TRPV1 PAM,Menin MLL FP FL,ClpP mod,PINK1 modulator,TRPML1 blocker
CCCCNC1=CC(=O)C(=O)c2ccccc21,1.2,12%,-6,1.1,-3.5%,0.1%,8
CON/C=C(\C=Nc1ccccc1)c1ncc(C(F)(F)F)cc1Cl,1.2,0%,-6,5.7,-1.9%,7.8%,2
Cc1nn(C(C)C(=O)NCc2cccs2)c(=O)c2nn(-c3ccccc3)c(C)c12 (stereo not drawn),0.9,15%,?,.,-2.5%,-1.0%,-11

Following part:
structure,TRPML1 agonist,Sfp PPTase inh,TRPV1 PAM,Menin MLL FP FL,ClpP mod,PINK1 modulator,TRPML1 blocker
CSc1nc(-c2ccccc2)c2cc(Cl)ccc2n1,2.7,5%,22,1.1,-8.0%,3.2%,-2
CCc1nn(CC(=O)NCCCN2CCN(CC)CC2)c(=O)c2cc3occc3n12,0.5&-0.3,10%,-1,.,-4.1%&-2.5%,-0.1%&1.2%,-6&4
COc1cc(OC)c(NC(=O)N2CCN3CCCCC3C2)cc1Cl (stereo not drawn),0.5,.,.,.,-1.3%,-0.5%,-21
CSc1ccc(CCNC(=O)c2nn(C)c3c2CS(=O)(=O)c2ccccc2-3)cc1,0.5,4%,0,0.2,0.0%,1.0%,11
O=C(COC(=O)c1ccc(OC(F)F)cc1)NCc1cccs1,-0.3,.,.,.,3.8%,3.3%,9
CC(C)OCCCNC(=O)c1ccc(CS(=O)(=O)Cc2ccccc2F)o1,3.0,9%,-8,2.9,0.2%,13%[38.3 µM],-16
CC(C)c1ccc(C(=O)NN2C(=O)C3CCCCC3C2=O)cc1 (stereo not drawn),2.4,9%,1,7.8,-2.2%,-0.7%,-14
CCOc1ccc(C(C)NC(=O)c2ccccc2F)cc1 (stereo not drawn),1.9,19%,-11,5.4,-2.7%,1.9%,15
Cc1ccc2c(Cl)c(C(=O)NCCc3ccccc3)sc2c1,1.8,8%,10,.,2.3%,7.9%,28
CC(C)Sc1nc2[nH]ncc2c(=O)[nH]1,-0.3,50µM*,2,0.9,.,1.6%,8
CCc1ccc(OC(C)C(=O)Nc2ccc(S(=O)(=O)Nc3cc(C)on3)cc2)cc1 (stereo not drawn),1.1,14%,4,1.9,.,-0.5%,-17
O=C1NC2(CCCCC2)C(=O)N1Cc1cccc(C(F)(F)F)c1,0.0,8%,-19,3.8,0.3%,2.0%,-2
Cc1ccc(CC2CC(=O)N(c3cc(Cl)ccn3)C2=O)cc1 (stereo not drawn),-0.9,10%,.,0.7,0.2%,0.1%,7
CCOC(=O)c1[nH]c(C)c(C(=O)OCC(=O)Nc2sc3c(c2C#N)CCCCC3)c1C,-0.6,27%,-2,-6.6,.,-1.1%,-5
COc1ccccc1/C=N/NC(=O)C(NC(=O)c1ccccc1)=C(C)C,0.5,15%,3,4.2,-7.1%,-0.8%,8
CSCCC(NC(=O)c1ccc(=O)n(C)n1)c1nc2ccccc2[nH]1 (stereo not drawn),-0.7,-3%,14,4.6,-1.4%,0.4%,-6
COc1ccc(Br)cc1S(=O)(=O)N1CCN=C1c1ccccc1,-0.4,12%,-9,.,1.6%,1.0%,6
COc1ccccc1C(=O)Nc1ccccc1SC(=O)c1ccccc1OC,1.2,?,13,.,-9.0%,-2.1%,12
COc1ccc(NC(C)=O)cc1NC(=O)c1ccc2ccccc2c1,0.9,7%,2,2.5,-0.2%,1.0%,-16
CC(CCc1ccccc1)NC(=O)c1ccc(Br)o1 (stereo not drawn),3.1,-1%,-5,-1.0,0.1%,-4.7%,46
COc1ccc(CN2C(=O)C(CC(=O)NCc3cccs3)CC(C(=O)N(C)C)=C2C)cc1 (stereo not drawn),0.0,.,.,.,-1.0%,0.4%,7
O=C(CCc1ccccc1)NCc1ccc2c(c1)CCN2C(=O)c1ccccc1,-0.3,.,.,.,-3.9%,0.1%,-19
COc1cccc(C(=O)NCCS(=O)(=O)NCCc2ccc(OC)c(OC)c2)c1,2.1,.,-21,.,-0.3%,0.0%,-18
Cc1cccc(N2CCN(C(=S)Nc3ccc4nc(N5CCN(C)CC5)cc(C)c4c3)CC2)c1C,-0.6,-28%,-15,3.8,-0.1%,-2.0%,1
CN(C)C(=O)CCCc1nc(-c2ccc(Cl)cc2)no1,0.5,-12%,-25,0.8,-0.4%,3.3%[38.3 µM],2
COCc1nnc(NS(=O)(=O)c2c(C)cc(C)cc2C)s1,0.1,8%,-11,0.9,-0.9%,-0.4%,0
O=C(Nc1ccc2c(c1)Cc1cc([N+](=O)[O-])ccc1-2)C(F)(F)F,0.9,.,.,.,-7.1%,1.2%,-8
COC(=O)c1ccccc1Oc1cc(C(F)(F)F)nc(-c2ccccn2)n1,0.9,.,.,.,.,21%,33
O=C(O)CSc1nnc(-c2cccnc2)n1Cc1ccccc1,1.4,17%,-13,-0.3,-3.2%,1.1%[38.3 µM],-12
O=C(NCc1cccc(C(F)(F)F)c1)c1ccc2sc([C@@H]3O[C@H](CO)[C@H](O)[C@H](O)[C@H]3O)nc2c1,0.3,.,.,.,-2.4%,1.7%,4
CCOc1ccccc1NC(=O)CC(O)(C(F)(F)F)C(F)(F)F,-1.2,-13%,-7,2.1,3.0%,0.5%,3
CCN(Cc1ccccc1)S(=O)(=O)c1ccc(S(=O)(=O)N2CCN(C)CC2)cc1,0.0,10%,-11,5.3,0.0%,-3.6%[38.3 µM],18
CN(C(=O)c1cnc2n(c1=O)CCS2)C1CCCCC1,-0.5,18%,-6,2.0,-1.0%,-1.9%,-3
CCC(C(=O)NCCCN1CCN(CC)CC1)n1nc(C)n2c(cc3occc32)c1=O (stereo not drawn),-0.5,14%,-42,-3.7,-5.5%,2.1%,2
O=C(CCS(=O)(=O)c1ccc(Cl)cc1)N1CCN(c2ccccc2F)CC1,1.0,16%,12,3.4,-1.2%,-0.9%,-10
COc1ccc(CNC(=O)C2CCN(c3nccs3)CC2)cc1,-0.6,9%,-2,0.4,1.2%,0.3%,-3
CCCN1Cc2cccc(C(=O)NC(C)c3cccs3)c2C1=O (stereo not drawn),3.3,-9%,-23,0.6,0.4%,-0.8%,-1
c1ccc(-c2ccc(C3=Nn4c(nnc4-c4cc(-c5ccccc5)n[nH]4)SC3)cc2)cc1,0.1,-11%,?,1.4,0.8%,9.0%[38.3 µM],-6
CCc1[nH]c(=O)[nH]c1C(C)S(=O)(=O)c1ccc(C)cc1 (stereo not drawn),0.4,20µM*,-2,-1.4,.,-1.4%,-7
Cc1cc(NC(=O)Nc2ccc(C)c(C)c2)no1,-0.1,-2%,8,0.7,.,1.7%,0
CCC(OC(=O)C1=Cc2ccccc2OC1)C(=O)NC1CCCC1 (stereo not drawn),0.8,20%,8,-1.4,-1.8%,.,-8
CSc1ncc(C(=O)Nc2ccc(C)cc2C)c(C)n1,0.3,-2%,-31,11,.,4.6%,75
CCN(CC)CCNC(=O)c1ccc(NC(=O)c2ccc(S(=O)(=O)N(C)c3ccccc3OC)cc2)cc1,1.2,.,.,.,-0.8%,4.0%,12
CCN(CC)S(=O)(=O)c1ccc(NC(=S)NC(=O)C(C)C)cc1,7.6,-9%,-32,1.6,-12%,-1.7%,-8
COc1ccc2c(C)cc(=O)oc2c1OCC(O)CN1CCOCC1 (stereo not drawn),-0.7,.,.,.,4.8%,2.6%,.
CCOC(=O)c1oc2ccccc2c1CN1CCOCC1,-0.3,14%,-2,-5.6,0.2%,0.6%,-5
